Assay outcomes: PubChem BioAssay, ICCB-Longwood Screening Facility, Harvard Medical School
GIV-Gai inh = blocks GIV peptide binding to rat Galpha-i3; P08753; Galpha-i3/FITC-GIV peptide fluorescence polarization, 90 min; hits give low values; scaled: aluminum fluoride 0%, vehicle 100%; percent of control (FP), % (concentration not given with the values); 210,000 compounds, 0.42% hits; AID 1224905;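 active = replicate mean at 85% of control or lower, very high polarization wells dropped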;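 also: wells of about 15 µL received 100 nL stock; the first replicate is given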
Target sequence (P08753 whole entry, looked up): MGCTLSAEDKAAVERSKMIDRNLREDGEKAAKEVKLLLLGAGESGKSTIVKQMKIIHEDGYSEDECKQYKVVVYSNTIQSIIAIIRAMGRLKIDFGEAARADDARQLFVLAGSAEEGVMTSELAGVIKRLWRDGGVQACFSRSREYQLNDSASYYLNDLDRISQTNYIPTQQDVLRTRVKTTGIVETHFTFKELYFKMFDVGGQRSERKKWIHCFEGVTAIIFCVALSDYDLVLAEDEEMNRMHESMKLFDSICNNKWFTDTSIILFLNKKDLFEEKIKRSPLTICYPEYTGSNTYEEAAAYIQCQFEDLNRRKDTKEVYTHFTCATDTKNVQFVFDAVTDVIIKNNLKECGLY
* = called active by the depositor. A portion of the library; the hit share may differ from the screen's.

compound	GIV-Gai inh
COc1cccc(C2NC(=S)NC(C)=C2C(=O)Nc2cccc(C)c2C)c1OC (configuration not stated)	109
CCS(=O)(=O)Nc1cnc(N2CCNCC2)c(C(=O)N(CC(C)C)CC(C)C)c1	105
Cc1ccc(-c2cc(N3CCN(C(=O)c4ccccc4Br)CC3)ncn2)cc1	106
O=S(=O)(NCCN1CCOCC1)c1cc(-c2noc(C3CCCC3)n2)cs1	98
COc1ccc(/C=C/C(=O)N2c3ccccc3Sc3ccc(C(F)(F)F)cc32)cc1OC	110
O=[N+]([O-])c1ccc(C2Nc3ccc(Br)cc3C(c3ccccc3)O2)cc1 (configuration not stated)	114
CC(C)C12CN3CC(C(C)C)(CN(C1)C3c1c[nH]c3ccccc13)C2=O (configuration not stated)	103
CN(C)c1nc2ncn3c(=O)n(CC(=O)NCc4ccc(F)cc4)nc3c2s1	101
CCN1CCN(c2ccc(Nc3nc(C)nc4cc(Cl)ccc34)cc2)CC1	112
CN(C)c1ccc(/C=C/C2N(Cc3ccc(Cl)cc3)CCN2Cc2ccc(Cl)cc2)cc1	109
COc1ccc(C2Nc3ccc4ncccc4c3C3=C2C(=O)CC(C)(C)C3)c(OC)c1 (configuration not stated)	105
COc1ccc(C2CC(c3ccco3)=Nc3ccccc3S2)cc1OC (configuration not stated)	102
O=C(CCc1nc(CSc2nc3ccccc3s2)no1)Nc1c(F)cccc1F	104
CCc1onc(C)c1C1CCCN1Cc1cccnc1 (configuration not stated)	110
CCOc1cc(C2CC(=O)NC(SCC(=O)OCc3ccccc3)=C2C#N)ccc1O (configuration not stated)	103
C=CCN1CCN(c2ccc3nnc(CCc4nc(-c5ccc(F)cc5)no4)n3n2)CC1	99
O=C(O)c1cc(N2C(=O)/C(=C/c3ccc(-c4ccc([N+](=O)[O-])cc4)o3)C=C2c2ccccc2)ccc1O	116
COc1ccc(C2Nc3ccccc3C(=O)N2Cc2ccccc2)cc1COc1ccccn1 (configuration not stated)	97
Fc1ccccc1C1Nc2cccc3cccc(c23)N1	133
C=C1N(C2CCCCC2)C(=O)OC12CCCCC2	111
Cc1sc(-c2nc(-c3ccc(Cl)cc3)no2)cc1S(=O)(=O)NC1CC1	100
CCOC(=O)c1c(NC(=O)C(C)Sc2nnc(CNC(=O)c3ccc(C)c(C)c3)n2C)sc2c1CCC2 (configuration not stated)	104
Cc1ccc(S(=O)(=O)c2cnc(N3CCN(c4cccc(Cl)c4)CC3)nc2N)cc1C	107
O=[N+]([O-])c1cc(-c2ccc(/C=N/c3c(-c4ccco4)nc4ccccn34)o2)ccc1Cl	104
Nc1ccn(C2CC(O)C(COC(c3ccccc3)(c3ccccc3)c3ccccc3)O2)c(=O)n1 (configuration not stated)	109
O=C(CSc1ccccc1)N1CCN(Cc2cc(=O)n3nc(-c4ccccc4F)sc3n2)CC1	103
CCC(C)NC(=O)c1nc(CS(=O)(=O)c2ccccc2)no1 (configuration not stated)	105
COc1ccc(-n2ccc(=O)c(-c3nc(-c4ccc(Cl)c(F)c4)no3)n2)cc1	101
CCc1onc(C)c1C1CCCN1S(C)(=O)=O (configuration not stated)	103
CCCCCc1c2c(C)c(C(=O)OCC)nc-2cc2n1CC(C)=C2C	106

Ordered by the number under GIV-Gai inh (smallest number first): some entries from above.
compound	GIV-Gai inh
COc1ccc(-n2ccc(=O)c(-c3nc(-c4ccc(Cl)c(F)c4)no3)n2)cc1	101
COc1cccc(C2NC(=S)NC(C)=C2C(=O)Nc2cccc(C)c2C)c1OC (configuration not stated)	109
CCN1CCN(c2ccc(Nc3nc(C)nc4cc(Cl)ccc34)cc2)CC1	112

Additional structures follow.
compound	GIV-Gai inh
COc1ccc(NC(=O)c2cc(-c3ccccc3)nc3ccccc23)cc1	104
O=C(c1cccc(Nc2ncc(-c3ccc(F)cc3)cn2)c1)N1CCCC1	102
CCOC(=O)c1[nH]c(C)c(CN(Cc2ccc(C)cc2)C(=O)C2CCC2)c1C	97
Cc1nnc(SCC(=O)Nc2ccc3c(c2)OCO3)s1	109
Cc1ccn2c(=O)cc(COc3ccc(NC(=O)Nc4ccc(Cl)cc4)cc3)nc2c1	82*
O=C(Cc1ccccc1)Nc1cccc(-c2ccc3ccccc3n2)c1	104
CCN1C(=O)CC(C(=O)Nc2cccc(Cl)c2)SC1=Nc1ccc(C(=O)OC)cc1 (configuration not stated)	109
COCCCNC(=O)N1CCCC1c1cc(C(C)C)no1 (configuration not stated)	102
CCCOc1ccc(-c2noc(Cc3nc(-c4ccc(OC)c(OC)c4)cs3)n2)cc1	102
CC(=O)N1c2ccccc2N=C(c2ccc(Cl)cc2)CC1c1ccc(Cl)cc1 (configuration not stated)	112
CN(CCO)CC(O)Cn1c2ccc(Br)cc2c2cc(Br)ccc21 (configuration not stated)	109
Cc1cc(C)c(S(=O)(=O)N2CCCN(c3nc4cccnc4s3)CC2)c(C)c1	103
Cc1ccc(COc2ccc(C3C4=C(CC(C)(C)CC4=O)NC4=C3C(=O)CC(C)(C)C4)cc2)cc1	116
COc1ccc(C2Nc3ccc(C)cc3[C@H]3OCCC[C@@H]23)cc1O (some centres not stated)	104
N#CC1=C(N)Oc2n[nH]c(-c3ccccc3)c2C1c1ccccc1OC(=O)N1CCOCC1 (configuration not stated)	109
Cc1nc(CNC(=O)[C@H]2CCCN2S(=O)(=O)c2cccc(Cl)c2)cs1	98
CCN1C=C(C(=O)OC(C)C)C(C)=NS1(=O)=O	102
CCc1cc(N2CCN(c3ccccc3OC)CC2)n2ncnc2n1	97
CCCN1C2=NCCN2c2ccccc21	100
CCOC(=O)CSc1nnc(-c2ccccc2)c(=O)[nH]1	101
NNC(=O)C(c1ccccc1)P(=O)(c1ccccc1)c1ccccc1 (configuration not stated)	112
COC(=O)CCC1(CCC(=O)OC)C(=O)CC(C)(C)CC1=O	100
CCNc1cc(C)nc(N2CCN(S(=O)(=O)c3ccc(OC)cc3)CC2)n1	107
COc1ccccc1NC(=O)Cn1cnc2sc(C(=O)NCCc3ccc(OC)c(OC)c3)c(C)c2c1=O	101
COc1ccc(-c2nnc(SCC(=O)Nc3cccc(C)c3C)nc2-c2ccc(OC)cc2)cc1	119
O=C(NCc1ccc2c(c1)OCO2)c1cc2nc(-c3ccc4c(c3)OCO4)cc(C(F)(F)F)n2n1	107
COC(=O)c1c(NC(=O)c2ccc3c(c2)N(Cc2ccc(Cl)cc2)CCS3)sc(C)c1C	108
CC(C)(C)NC(=O)C1(n2cccc2)CCCCC1	101
Cc1nn(-c2nc3ccc(Br)cc3s2)c2c1C(c1cccc(Cl)c1)CC(=O)N2 (configuration not stated)	104
Cc1nnc(-c2coc(S(=O)(=O)N3CCN(CC(C)C)CC3)c2)o1	107

2 of the compounds above, with values ahead of the structure.
GIV-Gai inh	smiles
102	CCCOc1ccc(-c2noc(Cc3nc(-c4ccc(OC)c(OC)c4)cs3)n2)cc1
112	CC(=O)N1c2ccccc2N=C(c2ccc(Cl)cc2)CC1c1ccc(Cl)cc1 (configuration not stated)

Remaining list, next part
compound	GIV-Gai inh
Cc1ccc(-c2cncc(C(=O)NC(C)c3ccc(C)cc3)c2)cc1 (configuration not stated)	100
COc1ccc2nc(NC(=O)CNC(=O)Cn3cnc4sc5c(c4c3=O)CCCC5)sc2c1	109
O=C1CC(c2ccccc2OCc2ccccc2F)c2cnn(-c3nc4ccccc4s3)c2N1 (configuration not stated)	100
CCN(CC)Cc1c(C(=O)N/N=C/C2CC=CCC2)nnn1-c1nonc1N (configuration not stated)	102
CCOC(=O)C1=C(C)NC2=C(C(=O)C(C(=O)OCC)C(c3ccc(OC)cc3)C2)C1c1cccc(OC)c1OC (configuration not stated)	102
Cc1cc(=O)oc2c3c(ccc12)O/C(=C\c1cc(Br)ccc1O)C3=O	108
COc1cc(C2C(C(=O)N3CCOCC3)=C(C)NC3=C2C(=O)CC(C)(C)C3)cc([N+](=O)[O-])c1O (configuration not stated)	99
Cc1cc(C2CCCN2C(=O)Nc2ccc(Br)cc2F)no1 (configuration not stated)	112
CCNc1cc(C)nc(N2CCN(C(=O)C(C)C)CC2)n1	100
CCOC(=O)c1c(S(=O)(=O)NCC(=O)N2CCCC2)c(C)n(CC)c1C	104
CC1CCCN(Cc2nc(Cn3ccn4nc(-c5cccs5)cc4c3=O)no2)C1 (configuration not stated)	114
Cn1c(=O)c2nc(SCCC(=O)Nc3cc(F)cc(F)c3)n(C)c2n(C)c1=O	102
Cc1nc2cc(C(=O)NCCN3CCOCC3)ccc2n1-c1ccc(Br)cc1	120
COc1ccc(OC)c(C2C3=C(CCCC3=O)N(c3ccc([N+](=O)[O-])cc3)C(=N)/C2=C(/O)c2ccc(C)cc2)c1 (configuration not stated)	111
COc1ccccc1NC(=O)CSc1nc2ccccc2n1S(=O)(=O)c1ccc(Br)cc1	107
CCN(CC)CCC(=O)N1c2ccccc2Sc2ccc(C(F)(F)F)cc21	109
Cc1nc(N2CCN(Cc3ccccc3)CC2)c2c3c(sc2n1)CCCC3	111
O=C(Nc1ccc(F)cc1F)N1CCC(n2cnc3cc(Cl)ccc3c2=O)CC1	110
Cc1ccc(NS(=O)(=O)c2cc(S(=O)(=O)Nc3ccc(C)cc3)c3cccc4c3c2NC4=O)cc1	106
O=S(=O)(NCCc1n[nH]c(Cc2cccc(F)c2)n1)c1cccc(F)c1	101
COC(=O)c1sccc1NC(=O)NC1CCN(c2nc3ccccc3n(CC(C)C)c2=O)CC1	98
Cc1ccc(NC2=C(CC(=O)O)C(c3ccc(Br)cc3)N(c3ccc(C)cc3)C2=O)cc1 (configuration not stated)	108
O=C(Nc1cccc(-c2ccc3ccccc3n2)c1)c1ccccc1	104
CC(C)(C)C(=O)[C@H]1[C@H](c2ccc([N+](=O)[O-])cc2)C(C#N)(C#N)[C@@H]2c3ccccc3C=CN21	134
Fc1cccc(Nc2nc(NCC3CCCO3)nc3c2cnn3-c2ccccc2)c1 (configuration not stated)	100
Cc1ccc(-c2csc3c2ncn2c(=O)n(CC(=O)Nc4cc(C)cc(C)c4)nc32)cc1	96
CC(C)Cc1ccc(S(=O)(=O)Nc2ccc3nncn3n2)cc1	111
Cc1noc(C)c1C1CCCN1Cc1cn[nH]c1-c1cccc(Br)c1 (configuration not stated)	110
CC(C)c1nnc(-c2coc(S(=O)(=O)N3CCCCC3C)c2)o1 (configuration not stated)	104
CC(C)CNC(=O)c1cccc(Oc2ccnc(-c3ccc(F)cc3)n2)c1	104
COCC(=O)N1CCC(N(Cc2csc(-c3cccs3)n2)S(C)(=O)=O)CC1	105
Cc1ccc(CNC(=O)c2ccc3nc(-c4ccccc4)c(-c4ccccc4)nc3c2)cc1	111
Cc1c(NC(=O)CSc2nc3ccccc3[nH]2)c(=O)n(-c2ccccc2)n1C	101
O=C(NC12CCC(O)C(SC1)C2=O)c1ccccc1 (configuration not stated)	119
CCCC1=C(C(=O)OCC)C(c2ccc(F)cc2)C(C#N)=C(N)O1 (configuration not stated)	106
O=C(NC1CC1)C1CCCN(c2ncc(-c3ccc(F)cc3)cn2)C1 (configuration not stated)	103
CCOC(=O)C1=CN(Cc2ccc(OC)cc2)C=C(C(=O)OCC)C1c1cc2c(cc1Br)OCO2	101
O=C(Nc1ccc(Br)cc1F)N1CCN(c2cc(-c3ccccc3)ncn2)CC1	106
Cc1nn(-c2nc3ccccc3n2C)c2c1C(c1ccccc1F)CC(=O)N2 (configuration not stated)	103
FC(F)(F)c1cccc(Nc2nc(NCc3ccccc3)nc(N3CCOCC3)n2)c1	110
O=C(CN1C(=O)C2(OCCO2)c2cc(Br)ccc21)NO	102
CC1CCCN(c2cc(C(=O)Nc3ccc(F)cc3)c3ccccc3n2)C1 (configuration not stated)	101
COc1ccc(CCNc2nc(SCC#N)nc3ccccc23)cc1OC	112
O=S(=O)(Nc1ccc(Cl)cc1)c1ccc2c(c1)-c1oncc1CO2	101
O=C(Nc1ccc2c(c1)OCO2)Nc1c(-c2cccnc2)[nH]c2ccccc12	103
CC1(C)CC(=O)C2=C(C1)Nc1ccc3ccccc3c1C2c1ccccc1OCc1ccccc1 (configuration not stated)	111
Cc1cc(C)c(Cn2c(=O)c3cnc(-c4ccncc4)nc3n(C)c2=O)c(C)c1	104
COc1ccc(OC)c(S(=O)(=O)n2nnc3ccccc32)c1	108
CCOc1cc(/C=C2/C(=N)N3C(c4ccccc4)=CSC3=NC2=O)ccc1OCCOc1ccccc1C	113
Cc1c(Cl)cccc1-n1c(-c2ccco2)n[nH]c1=S	108
COc1cc(C(=O)NCC(=O)N2CCN(c3ccccc3)CC2)cc(OC)c1OC	115

Retrieved by structure from above, 6 records:
compound	GIV-Gai inh
Cc1c(NC(=O)CSc2nc3ccccc3[nH]2)c(=O)n(-c2ccccc2)n1C	101
CC1CCCN(c2cc(C(=O)Nc3ccc(F)cc3)c3ccccc3n2)C1 (configuration not stated)	101
Cc1nn(-c2nc3ccccc3n2C)c2c1C(c1ccccc1F)CC(=O)N2 (configuration not stated)	103
Cc1cc(C)c(Cn2c(=O)c3cnc(-c4ccncc4)nc3n(C)c2=O)c(C)c1	104
COc1cc(C(=O)NCC(=O)N2CCN(c3ccccc3)CC2)cc(OC)c1OC	115
CCCC1=C(C(=O)OCC)C(c2ccc(F)cc2)C(C#N)=C(N)O1 (configuration not stated)	106
